PrP UTR inh: suppresses PrP 5' UTR mRNA reporter expression; cell-based PrP 5' UTR mRNA reporter, plate reader; inhibition, % (no concentration beside the values); 340,000 tested, 0.35% active;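 active = every replicate at 50% or more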;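 note: 0 = median of the neutral control wells; tested in H4 reporter cells; numbers are from one replicate; inactives centre near -14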
Sa ugtP lethal: compounds lethal to S. aureus RN4220 ugtP deletion mutant. OD600 growth, 16 h; some inactives read as strong as hits. growth inhibition, % (no concentration beside the values). 330,000 tested, 0.54% active;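 active = z-score under -3 and OD600 up to 0.15 on both plates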;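 note: plate controls were untreated wells for no effect and antibiotic for full effect; wells of about 80 µL received 100 nL stock; the first replicate is given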
Mtb hypoxia inh: reduces hypoxia-regulated biosensor signal in M. tuberculosis. M. tuberculosis hypoxia-regulated fluorescent reporter, fluorescence. fluorescence inhibition, % (test concentration not listed). 300,000 tested, 0.1% active. AID 1159583;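 active = 35 to 45% if threefold the growth effect, above 45% if 1.5-fold the growth effect; inactive = the rest, general growth blockers included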;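 note: wells of about 50 µL received 100 nL stock; 0% = vehicle wells and 100% = reference inhibitor wells; whole bacteria with a GFP reporter of the hypoxia response; strong numbers were not always called active; many hits fall short of the cut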
RN4220 kill: S. aureus RN4220 growth inhibition; OD600, 16 h; AID 1259311; 330,000 tested, 0.33% active; inhibition, % (no concentration beside the values);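 active = z-score of -3 or lower and OD600 up to 0.18 on both plates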;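 note: plate controls were untreated cells for no effect and reference antibiotic for full effect; stock transfer was 100 nL into about 80 µL; one replicate is shown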
Autofluor counter: flagged as autofluorescent in microsphere protease counterscreen; compound autofluorescence counterscreen, microsphere flow cytometry; stronger effect = higher value; fluorescence intensity (test concentration not listed); 360,000 tested, 3.1% active; AID 624483;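 active = at least 3 SD above the mean of all compounds, about 16000 in these data; inconclusive = too few beads counted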;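 note: 100 nL of 1 mM stock went into each well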
BJeLR viability: kills HRASV12-expressing BJeLR cells; BJeLR (HRASV12) viability, CellTiter-Glo ATP luminescence, 48 h; reference of the scale not given here; inhibition, % (concentration not given with the values); 300,000 tested, 0.17% active; AID 1554;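 active = replicate mean above 50%; inconclusive = above 50% but judged a plate artefact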;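 note: 50 nL library stock added to about 25 µL; numbers are from one replicate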
Mtb hypoxia inh growth: also measured in Mtb hypoxia inh; calls as there; growth inhibition, %; measured here: M. tuberculosis growth (absorbance);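 0% = vehicle and 100% = reference antibiotic; read after six days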
Starred values were filed as active, the others as inactive; u = inconclusive; x = not tested or not shown.

SMILES	PrP UTR inh	Sa ugtP lethal	Mtb hypoxia inh	Mtb hypoxia inh growth	RN4220 kill	Autofluor counter	BJeLR viability
COc1ccc(OC)c(Nc2cc(C(=O)NCCCN3CCOCC3)c3ccccc3n2)c1	-11.6	-1.1	-1.7	6.3	4.2	3858	-8.3
COc1ccc(C(C(=O)NC2CCCCC2)N(C(=O)c2ccco2)c2ccc(-n3cnnn3)c(C)c2)cc1 (configuration not stated)	-11.0	-2.5	1.2	-1.8	1.2	2867	1.5
CCOc1ccccc1NC(=O)Cn1nnc(C(=O)Nc2ccc(C)cc2)c1N	-5.1	-8.5	x	x	0.9	4756	0.4
Cc1ccc(S(=O)(=O)NCc2cccnc2)cc1	-36.6	2.8	14.7	9.9	3.9	3926	7.0
COC(=O)[C@]1(Cc2ccccc2)N[C@H](CN(C)C(C)=O)[C@@H]2C(=O)N(Cc3ccccc3)C(=O)[C@@H]21	-10.6	0.7	-16.8	4.7	4.7	2897	x
O=C(OCc1nc2ccc(Cl)cc2n1CCO)c1ccc2c(c1)OCO2	-5.7	-1.3	4.4	4.0	-0.3	6281	-9.1
CCN(CC)c1ccc(/C=C2\CCC(/C=C(/C#N)C(=O)Nc3ccccc3F)=C2N2CCOCC2)cc1	-5.5	4.1	8.0	-0.3	2.2	3675	x
CC(C)c1[nH]c(=O)c(C#N)c2c1CSC(C)(C)C2	-11.0	3.3	10.9	3.4	-0.5	3683	2.6
CC1(C)Cc2c(cnn2-c2ccccc2)C(NC(=O)CCN2CCCC2=O)C1 (configuration not stated)	-24.7	0.1	6.8	-1.1	-2.5	4359	-12.3
COc1ccccc1NS(=O)(=O)c1cccc(C(=O)NN=Cc2ccc(C)o2)c1	x	12.0	3.8	-3.1	2.1	x	x
COc1ccc2c(c1OC)C(=O)N1C2SC(C)(C)[C@H]1C(=O)NCC(C)C (some centres not stated)	-15.2	-1.2	-1.8	-7.8	2.8	3122	4.2
CCCN1CCN(CCCNC(=O)Cn2nc(C)n3c(cc4cc(F)ccc43)c2=O)CC1	-1.0	5.5	-1.1	7.6	3.9	5620	-9.9
Cc1ccc(OCC(=O)NN=Cc2c(C)[nH]n(-c3ccccc3)c2=O)c([N+](=O)[O-])c1	x	-8.8	2.1	-11.1	2.5	x	x
Nc1nc(SCc2ccc(Cl)c(Cl)c2)n[nH]1	7.7	-1.5	-7.1	-2.3	-1.6	2450	-1.8
CCCCC(NC(=O)Cc1c(C)c2cc3c(-c4ccccc4)coc3c(C)c2oc1=O)C(=O)O (configuration not stated)	x	99.5*	-3.8	7.0	98.5*	3703	-7.3

2 of these compounds, reformatted.
compound: COc1ccc(C(C(=O)NC2CCCCC2)N(C(=O)c2ccco2)c2ccc(-n3cnnn3)c(C)c2)cc1 (configuration not stated)
- PrP UTR inh = -11.0
- Sa ugtP lethal = -2.5
- Mtb hypoxia inh = 1.2
- Mtb hypoxia inh growth = -1.8
- RN4220 kill = 1.2
- Autofluor counter = 2867
- BJeLR viability = 1.5

compound: COC(=O)[C@]1(Cc2ccccc2)N[C@H](CN(C)C(C)=O)[C@@H]2C(=O)N(Cc3ccccc3)C(=O)[C@@H]21
- PrP UTR inh = -10.6
- Sa ugtP lethal = 0.7
- Mtb hypoxia inh = -16.8
- Mtb hypoxia inh growth = 4.7
- RN4220 kill = 4.7
- Autofluor counter = 2897
- BJeLR viability = x

The list goes on.
SMILES	PrP UTR inh	Sa ugtP lethal	Mtb hypoxia inh	Mtb hypoxia inh growth	RN4220 kill	Autofluor counter	BJeLR viability
Cc1nc2cc(N3CCOCC3)c(NC(=O)C3CC3)cc2c(=O)n1Cc1ccccc1	-2.6	1.9	x	x	3.0	4725	-1.8
Clc1ccccc1C=Nc1cc(-c2ccccc2)nn1-c1ccccc1	x	3.2	3.3	4.7	-4.3	x	x
Cc1cc(NC(=O)Cn2nc(-c3ccccc3F)ccc2=O)ccc1-n1cnnn1	x	10.1	5.6	7.3	2.6	11606	-8.7
C#CCNCCS(=O)(=O)N(Cc1ccc(Br)cc1)[C@@H](C)C(=O)O	-16.2	2.5	0.8	2.9	1.0	2987	x
CCCNC(=O)c1ccc(N2CCC3(CC2)CC(c2ccccc2)=NO3)c([N+](=O)[O-])c1	-8.8	6.2	-5.3	10.3	0.8	4125	18.3
Cc1ccc(C)c(CN2C(=O)NC3(CCCCCC3)C2=O)c1	-24.5	-0.2	5.2	2.4	5.9	3289	-0.6
CCOc1ccc2nc(NC(=O)CSc3ccccc3)sc2c1	-28.5	-3.7	10.8	-9.0	4.7	2526	2.1
CC/C(C)=N/NS(=O)(=O)c1ccc(C)c([N+](=O)[O-])c1	-9.1	x	x	x	x	4477	0.8
CC1CCN(c2nc3ccccn3c(=O)c2C=O)CC1	-19.5	4.4	45.3*	21.7*	8.9	4583	6.4
CCOc1ccccc1N1CCN(C(=O)Nc2ccc(Cl)c(Cl)c2)CC1	x	-36.8	-0.1	6.5	-6.3	x	-2.0
Cc1cc(Cl)ccc1NC(=S)NCCC(c1ccccc1)c1ccccc1	-8.3	10.6	x	x	7.0	3469	5.9
CON=CCC(=O)Nc1ccc(Oc2ccccc2)cc1	x	2.9	3.9	11.9	-1.6	x	x
CCCCP(=O)(c1ccccn1)c1ccccn1	-17.4	1.9	-7.0	-7.9	2.9	16102	x
O=C(COC(=O)c1cc(=O)c2ccccc2o1)Nc1ccccc1F	-17.9	5.9	6.7	6.6	5.7	3162	x
O=C(NC1CCCc2ccccc21)C1CCCC1 (configuration not stated)	-2.6	4.4	14.0	6.1	0.2	4522	-16.7
Cc1ccc(-c2nn(-c3ccccc3)cc2C(=O)Nc2cccc(S(=O)(=O)N3CCOCC3)c2)cc1	1.7	-6.6	3.9	7.9	2.1	2509	2.2
COc1ccc(OC)c(C(=O)CSc2nnc(-c3cccnc3)n2C)c1	9.2	5.1	-6.4	-5.1	18.0	u	4.1
Cc1c(C)c2ccc(OCC(=O)N3CCC(C(=O)O)CC3)cc2oc1=O	-1.9	-6.8	x	x	2.3	4061	-9.5
CNC(=O)c1ccc2nc(NC(C)=O)sc2c1	-41.0	-1.0	8.6	9.6	3.5	8132	-1.9
BrCC(Br)C1CCC(Br)C(Br)C1 (configuration not stated)	-19.4	15.3	8.4	-0.4	10.4	4748	x
CCO[C@H]1OC(C(=O)O)=C[C@@H](c2cn(C(C)=O)c3ccccc23)[C@@H]1CCCO	-52.6	x	x	x	x	3823	-6.4
O=C(NCC(c1ccco1)N1CCCC1)c1ccc(-n2cccn2)cc1 (configuration not stated)	-4.1	-5.9	6.9	4.3	-0.8	3289	x
CCOCCCN(C(=O)c1snc(C(N)=O)c1N)C(C(=O)NC1CCCC1)c1ccc(O)c(OC)c1 (configuration not stated)	4.6	0.7	1.8	-1.8	5.2	3038	-0.1
CC(C)(CNS(=O)(=O)c1ccc(Cl)cc1)N1CCCCC1	-25.7	3.5	-2.5	3.2	6.3	8068	-10.1
C#CCOCCOCCOCCNc1nc(N2CCN(C(=O)C(CC(N)=O)n3cc(C(N)C(C)C)nn3)CC2)nc(N2CCN(C(=O)C(CC(N)=O)n3cc(C(N)C(C)C)nn3)CC2)n1 (configuration not stated)	x	4.0	19.7	8.6	8.5	x	x
COCCNC(=O)CN(C(=O)Cn1nnc2ccccc21)c1cc(C)cc(C)c1	-7.9	-3.5	3.0	5.0	-0.4	4090	1.5
CCNC(=O)CC1SC(=Nc2cccc3ccccc23)N(C)C1=O (configuration not stated)	-25.8	4.2	11.8	5.1	4.9	2793	10.4
Cc1ccc(C(=O)ON=C2CCN(c3ccc([N+](=O)[O-])cc3)CC2)cc1	-5.4	22.0	-6.8	0.8	5.9	5579	7.1
CCN(CC)C(=O)Cn1cnc([N+](=O)[O-])n1	0.5	21.5	6.3	3.2	3.7	11136	-0.2
CCC(=O)N1CCN(CCN=Cc2c(O)n(C)c(=O)n(C)c2=O)CC1	-5.8	8.3	11.0	8.6	6.1	15739	-1.6
CCc1ccc(C(C)NC(=O)c2ncn[nH]2)cc1 (configuration not stated)	-23.4	0.8	1.0	8.8	1.7	2485	-2.2
Cc1ccc(-c2noc(CN(C(=O)CCN3C(=O)c4ccccc4C3=O)C(C)C)n2)cc1	-3.0	-3.5	12.0	8.7	6.0	8285	0.2
O=C(CSc1ccc(-c2cccs2)nn1)Nc1ccccc1F	-12.9	6.2	-15.9	-4.9	8.4	4542	1.6
O=C(C[n+]1ccccc1)N1c2ccccc2Sc2ccccc21	-3.7	7.8	7.0	9.8	0.6	4152	5.6
CCOP(=O)(OCC)C(NC(=O)c1ccccc1Cl)=C(Cl)Cl	-13.1	-5.3	2.9	6.1	0.9	7907	-5.1
O=C1NCCCC1C(=O)N/N=C/c1cccc(Cl)c1 (configuration not stated)	-10.2	x	x	x	x	4502	0.7
O=C(CN1C(=O)/C(=C\c2ccc(F)cc2)Oc2ccccc21)N1CCN(c2ccccn2)CC1	-22.8	6.2	-6.1	-1.7	7.7	9211	-8.8
Cc1nc(SCC(=O)N2CCN(C(=O)c3ccco3)CC2)c2c(C)c(C)sc2n1	-11.7	2.6	x	x	-0.7	4054	1.0
CC(C)[C@H](N)C(=O)NC[C@H]1O[C@@H](n2cnc3c(N)ncnc32)[C@H](O)[C@@H]1O	-17.4	-1.1	-6.5	-7.3	3.8	3453	x
COc1cc(NC(=O)Cn2cnc(S(=O)(=O)N3CCc4ccccc43)c2)cc(OC)c1OC	-11.3	-0.8	-3.0	14.7	1.6	5239	-3.3
C[C@@H](c1ccccc1)N1C[C@H]2CCCN2c2cc(Br)ccc2S1(=O)=O	-32.1	-26.6	2.4	5.2	0.7	3524	x
C/C=C/c1ccc(OCC(=O)OCC(=O)NC2CC2)c(OC)c1	5.4	5.8	-6.8	-7.2	10.8	4513	x
O=C(CC1C(=O)NCCN1Cc1cccc(Oc2ccccc2)c1)NCC1CCOCC1 (configuration not stated)	-5.9	-0.4	3.8	7.4	6.0	2641	-2.9
CC1=C/C(=N\NC(=S)NCCc2ccccc2)CC(C)(C)C1	-54.4	x	x	x	x	4550	-17.0
CCCCCC(=O)Nc1cccc(C2=NOC3(C2)C[C@H](C(N)=O)N(C(=O)c2ccccc2C(=O)c2ccccc2)C3)c1 (some centres not stated)	-19.6	x	x	x	x	3594	-0.1
CCCC(=O)NC(c1ccc(OC)c(OC)c1)c1cc(Cl)c2cccnc2c1O (configuration not stated)	14.9	-4.4	9.5	-1.3	19.2	4350	19.9
CC(=O)N1CCc2c(sc(NC(=O)c3ccc4c(c3)OCCO4)c2C#N)C1	-42.5	-6.6	9.6	7.1	11.2	4478	17.6
Cc1cccc(NC(=O)c2ccc(S(=O)(=O)N3CCCCC3)cc2)n1	-12.5	7.1	2.9	5.7	1.6	5665	-14.1
CCC(Sc1ccccc1C(=O)O)C(=O)O (configuration not stated)	-13.5	5.0	0.8	1.1	6.2	3075	2.3
O=C(NCc1ccc(F)cc1)c1cnccn1	-8.5	1.7	22.6	32.3	3.6	3726	6.8
CN1N=C(C(=O)N2CCc3c([nH]c4ccccc34)C2c2c(F)cccc2Cl)CCC1=O (configuration not stated)	-31.8	-5.7	0.0	-9.4	-4.0	4054	-4.3
Cc1cc2c(cc1C)N(C(=O)CN1C(=O)c3ccccc3C1=O)C(C)(C)c1ssc(=S)c1-2	-18.1	-33.7	-3.1	1.2	0.8	2743	-0.5
Cn1c(=O)oc2cc(S(=O)(=O)NC3CCCCC3)ccc21	-8.1	0.3	2.2	4.6	3.0	3691	-5.7
N/C(=N\OC(=O)c1ccco1)c1cccc([N+](=O)[O-])c1	-38.5	x	x	x	x	4624	-5.0
COc1ccc(-c2nnc(NC(=O)c3c(OC)cccc3OC)s2)cc1	-13.9	-0.3	-7.5	-13.4	3.3	3682	0.8
Cc1cc(C)cc(NC(=O)CSc2nncn2-c2ccccn2)c1	-54.8	-5.0	12.2	6.8	6.6	2617	1.7
COc1ccc(CNC(=O)C[C@H]2C[C@H](C(=O)N3CCOCC3)[C@@]3(CCC4CCCC4)c4[nH]c5cc(CCC(=O)N(C)C)ccc5c4CCN3C2=O)cc1OC	-12.9	-0.2	-7.0	4.7	4.7	3626	x

Single records, as listed above. Screens in order: PrP UTR inh, Sa ugtP lethal, Mtb hypoxia inh, Mtb hypoxia inh growth, RN4220 kill, Autofluor counter, BJeLR viability
`CC/C(C)=N/NS(=O)(=O)c1ccc(C)c([N+](=O)[O-])c1` across the screens: -9.1, x, x, x, x, 4477, 0.8
`CCCN1CCN(CCCNC(=O)Cn2nc(C)n3c(cc4cc(F)ccc43)c2=O)CC1` across the screens: -1.0, 5.5, -1.1, 7.6, 3.9, 5620, -9.9

Screening data as filed in PubChem BioAssay.
